Bioassay records as filed in PubChem BioAssay.
Vaccinia stage – Vaccinia orthopox stage-specific inhibition; Vaccinia-infected cells, mCherry/Venus stage reporter fluorescence; hits give low values; some inactives read as strong as hits; activity change (mCherry), % (concentration not given with the values); actives 0.01% (n = 89,000);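 active means mCherry past -33% and 40 or more points under the early reporter, replicates agreeing; inconclusive means past -33% without that gap or agreement; tested in A549 cells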;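 further: scaled between vehicle wells and reference inhibitor wells; 23 nL library stock went into each well; one replicate is shown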
Vaccinia stage Venus – recorded beside Vaccinia stage, whose call it bears; activity change (Venus), %; measured here: Venus reporter, other viral stage;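 negative = less Venus signal; first of two replicates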
* marks the source's active call; other numbers are inactive results; u = inconclusive; x = not tested or not shown.

no.	smiles	Vaccinia stage	Vaccinia stage Venus
1	CO[C@H]1CN(C)C(=O)c2cc(NS(=O)(=O)c3ccccc3)ccc2OC[C@H](C)N(Cc2ccccn2)C[C@@H]1C	-15.7	-13.8
2	C[C@H](CO)N1C[C@H](C)[C@@H](CN(C)C(=O)C2CCC2)Oc2ncc(/C=C/c3ccccc3)cc2C1=O	-9.2	-10.9
3	CC=Cc1ccc2n(c1=O)C[C@H]1[C@H](CO)[C@@H](C(=O)NC3CCC3)[C@@H]2N1S(=O)(=O)c1cn(C)cn1 (mixture of isomers)	3.6	-5.1
4	COc1ccc(S(=O)(=O)N(C)C[C@H]2OCCCC[C@H](C)Oc3ccc(NC(=O)Nc4ccc(C(F)(F)F)cc4)cc3C(=O)N([C@@H](C)CO)C[C@@H]2C)cc1	-22.7	-6.2
5	O=C(c1ccccn1)N1C[C@@H]2[C@H](c3ccccc31)[C@@H](CO)N2C(=O)Cc1ccccc1	15.0	8.9
6	COCC(=O)Nc1ccc2c(c1)C(=O)N(C)[C@@H]1CC[C@@H](CC(=O)NC3Cc4ccccc4C3)O[C@H]1CO2	22.7	17.3
7	CCCC#Cc1cnc2c(c1)C(=O)N([C@@H](C)CO)C[C@@H](C)[C@H](CN(C)C(=O)C1CCC1)O2	-0.8	-2.7
8	C[C@@H]1CN([C@H](C)CO)C(=O)Cc2cc(NC(=O)Cc3ccccc3)ccc2O[C@H]1CN(C)C(=O)Nc1ccc(F)cc1	18.3	0.7
9	COc1ccccc1NC(=O)Nc1ccc2c(c1)OC[C@@H](C)N(Cc1ccccc1Cl)C[C@@H](C)[C@H](OC)CN(C)C2=O	-21.0	-10.8
10	O=C(C[C@H]1CC[C@@H]2[C@H](COC[C@@H](O)CN2C(=O)c2ccncc2)O1)NCc1ccc(-c2ccccc2)cc1	-4.4	4.8
11	C[C@H](CO)N1C[C@H](C)[C@@H](CN(C)C(=O)[C@@H]2CCCN2C)OCc2ccccc2-c2c(n(C)c3ccccc23)C1=O	2.2	-3.2
12	C[C@H]1CN([C@@H](C)CO)C(=O)Cc2cc(NS(=O)(=O)c3ccc(Cl)cc3)ccc2O[C@@H]1CN(C)Cc1ccccc1	-30.9	-21.0
13	Cc1noc(C)c1NC(=O)N1C[C@@H](O)COC[C@@H]2O[C@@H](CC(=O)NCC3CC3)CC[C@H]21	4.3	2.3
14	N#C[C@@H]1[C@H](c2ccc(-c3cccc(F)c3)cc2)[C@H](CO)N1C(=O)CN1CCOCC1	-18.8	-15.9
15	O=C(C[C@H]1C=C[C@@H](NC(=O)c2ccncc2)[C@@H](CO)O1)NCC1CCCCC1	-4.0	-5.7
16	O=C(C[C@H]1C=C[C@H](NC(=O)c2cccc(F)c2)[C@H](CO)O1)NCCN1CCCC1	7.7	8.9
17	C[C@H](CO)N1C[C@H](C)[C@H](CN(C)Cc2ccc(C(=O)O)cc2)OCCCC[C@H](C)Oc2ccc(NS(=O)(=O)c3ccc(Cl)cc3)cc2C1=O	25.7	14.5
18	COc1ccc2c3c([nH]c2c1)[C@@H](CO)N(C(=O)CN(C)C)CC31CN(CC2CCCC2)C1	u	x
19	COCC(=O)Nc1ccc2c(c1)C(=O)N(C)C[C@@H](OC)[C@H](C)CN(C(=O)c1cccnc1)[C@@H](C)CO2	5.4	5.0
20	C[C@@H]1CN([C@@H](C)CO)C(=O)c2cccc(NC(=O)c3ccncc3)c2O[C@H]1CN(C)S(=O)(=O)c1ccc(Cl)cc1	5.9	6.3
21	C[C@H](CO)N1C[C@H](C)[C@H](CN(C)C(=O)Nc2ccc(C(F)(F)F)cc2)Oc2ncc(/C=C/c3ccccc3)cc2C1=O	u	x
22	COc1ccccc1NC(=O)N(C)C[C@H]1Oc2ncc(C#CCC(C)C)cc2C(=O)N([C@@H](C)CO)C[C@@H]1C	-13.7	-23.6
23	O=S(=O)(c1ccccc1F)N1CC[C@@H]2[C@H]1c1cc(-c3ccccc3F)ccc1N[C@@H]2CO	-11.8	-6.7
24	COCC(=O)N1C[C@H](C)[C@@H](OC)CN(C)C(=O)c2ccc(NC(=O)c3cnccn3)cc2OC[C@@H]1C	-5.5	18.6
25	CO[C@@H]1CN(C)C(=O)c2cc(NS(=O)(=O)c3ccccc3)ccc2OC[C@H](C)N(Cc2nccs2)C[C@@H]1C	-12.2	-7.7
26	CN1[C@@H]2Cn3c(ccc(-c4ccc(F)cc4)c3=O)[C@H]1[C@@H](C(=O)NC1CCCCC1)[C@@H]2CO	0.7	5.6
27	C[C@@H]1CCCCO[C@H](CN(C)Cc2ccccc2)[C@@H](C)CN([C@@H](C)CO)C(=O)c2cc(NC(=O)CCC(F)(F)F)ccc2O1	-23.2	-10.4
28	C[C@@H]1CN([C@H](C)CO)C(=O)c2cccc(NS(=O)(=O)c3ccc(F)cc3)c2O[C@@H]1CN(C)Cc1ccc(Cl)c(Cl)c1	u	x
29	COc1ccccc1S(=O)(=O)N(C)C[C@H]1OCc2ccccc2-c2c(n(C)c3ccccc23)C(=O)N([C@@H](C)CO)C[C@@H]1C	u	x
30	COC(=O)C[C@H]1C[C@H]2c3cc(NC(=O)C4CCOCC4)ccc3O[C@H]2[C@@H](CO)O1	-8.6	4.6
31	O=C(c1cccc(F)c1)N1CCCCN2[C@H](C1)[C@@H](c1ccc(/C=C/c3ccccc3)cc1)[C@@H]2CO	u	x
32	C[C@H]1CN([C@@H](C)CO)C(=O)c2cc(-c3cccc(C#N)c3)cnc2O[C@@H]1CN(C)C	28.3	13.5
33	CS(=O)(=O)Nc1ccc2c(c1)[C@H]1C[C@H](CC(=O)NCc3ccccc3F)O[C@@H](CO)[C@H]1O2	2.1	4.1
34	CCCNC(=O)N1C[C@@H](O)COC[C@@H]2O[C@H](CC(=O)N3CCC(Cc4ccccc4)CC3)CC[C@H]21	-4.6	-6.7
35	O=C(N[C@@H]1C=C[C@H](CC(=O)N2CCOCC2)O[C@@H]1CO)c1ccccn1	-7.7	-0.4
36	CNC[C@@H]1Oc2ccc(NS(=O)(=O)c3c(C)noc3C)cc2CC(=O)N([C@@H](C)CO)C[C@H]1C	6.0	-0.2
37	CCC(=O)N1[C@H](C(=O)NCc2ccc(F)cc2)[C@@H](CO)[C@@H]2Cn3c(cccc3=O)[C@@H]21	13.1	2.4
38	C[C@@H]1CCCCO[C@@H](CN(C)C(=O)Nc2ccccc2)[C@H](C)CN([C@H](C)CO)C(=O)c2cc(NC(=O)C3CCCCC3)ccc2O1	-30.0	-27.6
39	O=C(C1CCCC1)N1CC(=O)N2[C@H](CO)[C@H](c3ccc(Br)cc3)[C@H]2C1	0.8	2.6
40	C[C@H](NC(=O)C[C@H]1C[C@H]2c3cc(NC(=O)C4CCC4)ccc3O[C@H]2[C@H](CO)O1)c1ccccc1	7.9	-1.1

Random excerpt: 5 entries already listed
no.	smiles	Vaccinia stage	Vaccinia stage Venus
35	O=C(N[C@@H]1C=C[C@H](CC(=O)N2CCOCC2)O[C@@H]1CO)c1ccccn1	-7.7	-0.4
36	CNC[C@@H]1Oc2ccc(NS(=O)(=O)c3c(C)noc3C)cc2CC(=O)N([C@@H](C)CO)C[C@H]1C	6.0	-0.2
40	C[C@H](NC(=O)C[C@H]1C[C@H]2c3cc(NC(=O)C4CCC4)ccc3O[C@H]2[C@H](CO)O1)c1ccccc1	7.9	-1.1
32	C[C@H]1CN([C@@H](C)CO)C(=O)c2cc(-c3cccc(C#N)c3)cnc2O[C@@H]1CN(C)C	28.3	13.5
39	O=C(C1CCCC1)N1CC(=O)N2[C@H](CO)[C@H](c3ccc(Br)cc3)[C@H]2C1	0.8	2.6

Additional results follow.
no.	smiles	Vaccinia stage	Vaccinia stage Venus
41	CN(C)CC(=O)N[C@@H]1CC[C@@H](CCNC(=O)Nc2ccc(F)cc2)O[C@H]1CO	-7.2	-4.1
42	CC(C)C#Cc1ccc([C@H]2[C@@H](CO)N3CCCCN(CC4CC4)C[C@H]23)cc1	7.5	6.5
43	Cc1ccc(S(=O)(=O)N(C)C[C@@H]2Oc3ccc(NC(=O)Nc4ccccc4)cc3C(=O)N([C@H](C)CO)C[C@@H]2C)cc1	-3.5	-5.1
44	C[C@@H]1CN([C@H](C)CO)C(=O)c2cc(-c3cccnc3)cnc2O[C@H]1CN(C)C(=O)Nc1ccc(F)cc1	48.0	23.6
45	COc1ccc(NC(=O)N(C)C[C@H]2Oc3c(NC(=O)c4nc5ccccc5s4)cccc3C(=O)N([C@@H](C)CO)C[C@H]2C)cc1	-18.1	-6.7
46	C[C@H]1CN([C@@H](C)CO)C(=O)Cc2cc(NS(=O)(=O)c3cccs3)ccc2O[C@H]1CN(C)CC1CC1	-2.2	4.2
47	C[C@H]1CN([C@@H](C)CO)C(=O)c2cccc(NC(=O)NC3CCCCC3)c2O[C@@H]1CN(C)Cc1ccc(Oc2ccccc2)cc1	u	x
48	C[C@@H]1CN([C@@H](C)CO)C(=O)c2cccc(NC(=O)CCCCCC(=O)Nc3ccccc3N)c2O[C@@H]1CN(C)Cc1ccc(C(F)(F)F)cc1	u	x
49	Cc1noc(C)c1S(=O)(=O)Nc1ccc2c(c1)C(=O)N([C@@H](C)CO)C[C@@H](C)[C@H](CN(C)C(=O)CCC(F)(F)F)OCCCC[C@H](C)O2	0.9	3.4
50	CN1C(=O)c2cc(NC(=O)c3cccc(F)c3)ccc2OC[C@H]2O[C@@H](CC(=O)NCC3CC3)CC[C@@H]21	18.7	8.0

One compound at a time, as listed above. Order of values: Vaccinia stage	Vaccinia stage Venus
COCC(=O)N1C[C@H](C)[C@@H](OC)CN(C)C(=O)c2ccc(NC(=O)c3cnccn3)cc2OC[C@@H]1C as listed: -5.5	18.6
C[C@H]1CN([C@@H](C)CO)C(=O)Cc2cc(NS(=O)(=O)c3ccc(Cl)cc3)ccc2O[C@@H]1CN(C)Cc1ccccc1 as listed: -30.9	-21.0

The list goes on.
no.	smiles	Vaccinia stage	Vaccinia stage Venus
51	C[C@@H]1CN([C@H](C)CO)C(=O)Cc2cc(N(C)C)ccc2O[C@@H]1CN(C)S(=O)(=O)c1ccccc1	9.1	-2.3
52	C[C@H](O)C#Cc1cnc2c(c1)C(=O)N([C@H](C)CO)C[C@H](C)[C@@H](CN(C)C(=O)c1ccccc1F)O2	4.6	-5.8
53	CCCNC(=O)C[C@@H]1CC[C@H]2[C@H](COc3ccc(NC(=O)c4cccc(OC)c4)cc3C(=O)N2C)O1	-2.2	2.8
54	Cc1ccc(S(=O)(=O)N(C)C[C@H]2OCCCC[C@H](C)Oc3ccc(NC(=O)Nc4ccc(F)cc4)cc3C(=O)N([C@H](C)CO)C[C@@H]2C)cc1	0.2	-5.7
55	CCCNC(=O)N1CC2(CCN(Cc3nccs3)CC2)c2c([nH]c3cc(OC)ccc23)[C@@H]1CO	8.4	0.6
56	CC=Cc1ccc2n(c1=O)C[C@@H]1[C@@H](CO)[C@H](C(=O)OC)[C@H]2N1CC1CC1 (mixture of isomers)	18.3	5.0
57	COc1ccc(S(=O)(=O)Nc2cccc3c2O[C@@H](CN(C)C(=O)Nc2c(C)noc2C)[C@H](C)CN([C@@H](C)CO)C3=O)cc1	11.7	6.5
58	O=C(Nc1ccccc1)N1CCCCN2[C@H](C1)[C@H](c1ccc(-c3ccccc3)cc1)[C@@H]2CO	-29.4	-23.7
59	CCCNC(=O)C[C@H]1CC[C@H]2[C@@H](COc3ccc(NC(=O)Cc4ccccc4)cc3C(=O)N2C)O1	3.5	11.6
60	COc1cccc(CNC(=O)[C@H]2[C@H](CO)[C@H]3Cn4c(ccc(-c5cncnc5)c4=O)[C@@H]2N3C(C)=O)c1	15.0	15.2
61	CCCC#Cc1ccc([C@H]2[C@H](CO)N3C(=O)CN(C(=O)Nc4ccccc4)C[C@@H]23)cc1	-28.3	-11.8
62	CC(C)NC(=O)N(C)C[C@H]1Oc2ncc(C#CC3CCCC3)cc2C(=O)N([C@H](C)CO)C[C@@H]1C	1.4	1.1
63	COc1ccc(CN2CC3(CN(C(=O)C4CC4)C3)c3c(n(C)c4cc(OC)ccc34)[C@@H]2CO)cc1	10.2	12.2
64	COc1cccc(CNC(=O)[C@H]2[C@H](CO)[C@H]3Cn4c(ccc(-c5cncnc5)c4=O)[C@H]3N2C)c1	0.0	6.1
65	C[C@H](CO)N1C[C@H](C)[C@H](CN(C)Cc2ccc(-c3ccccc3)cc2)Oc2c(NC(=O)c3cnccn3)cccc2C1=O	-3.8	1.5
66	C[C@H]1CN([C@@H](C)CO)S(=O)(=O)c2ccc(C#Cc3ccccc3F)cc2O[C@@H]1CN(C)C(=O)Cc1ccccc1	u	x
67	COc1cccc(-c2ccc3c(c2)[C@H]2[C@H](CCN2C(=O)Cc2ccccc2)[C@H](CO)N3)c1	-2.6	-1.6
68	Cc1ccc(S(=O)(=O)NCC[C@@H]2CC[C@H](NC(=O)c3cccc(F)c3)[C@H](CO)O2)cc1	0.5	4.1
69	CCNC(=O)C[C@H]1CC[C@@H]2[C@@H](COc3ccc(NC(=O)c4ccc5c(c4)OCO5)cc3C(=O)N2C)O1	3.1	3.7
70	CC=Cc1ccc2n(c1=O)C[C@@H]1[C@@H](CO)[C@H](C(=O)NCc3ccccc3)N(C)[C@H]21 (mixture of isomers)	6.4	4.0
71	Cc1ccc(S(=O)(=O)N(C)C[C@@H]2Oc3ccc(NC(=O)Cn4cnnn4)cc3CC(=O)N([C@H](C)CO)C[C@H]2C)cc1	15.9	9.4
72	CN1C(=O)c2cc(NC(=O)Nc3ccccc3)ccc2OC[C@H]2O[C@H](CC(=O)NC3CCC3)CC[C@H]21	-6.8	-2.4
73	O=C(C[C@H]1CC[C@@H](NC(=O)Nc2cccc(F)c2)[C@@H](CO)O1)NCC1CCCCC1	-20.0	-20.2

These rows are one share of the data; the hit share may differ from the screen's.
